# Bioassay records from PubChem BioAssay.
# Beta cell apopt = beta cell apoptosis inhibition; protection from apoptosis, % (no concentration beside the values); actives 0.8% (n = 300,000); INS-1E cytokine-induced death, ATP luminescence, 48 h; percent of positive-control rescue, neutral wells zero;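 active means all replicates at 75% or more, or half of them and the mean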;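 further: 0% = cytokine-treated negative control wells and 100% = positive control rescue; higher means more ATP so stronger rescue from cytokine killing; wells of about 40 µL received 100 nL stock; the first replicate is given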
# LANA-H2B inh = blocks KSHV LANA binding to histone H2A/H2B | Q9QR71 | cell-free LANA-H2A/H2B peptide, fluorescence polarization | inhibition, % (test concentration not listed) | actives 0.6% (n = 320,000) | AID 2629; in the data active means inhibition mostly above about 10%, no sharp cut-off; inactive means mostly below about 6.7%;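 further: stock transfer was 7.5 nL into about 10 µL; 0% = median of vehicle wells and 100% = median of positive control wells; one replicate is shown; the record names a cut of 25% in any replicate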
# A1 inh = inhibitors of the anti-apoptotic protein A1, read as caspase activation; MEF A1-2A-BIM cells, Caspase-Glo 3/7 luminescence, 3 h; percent of clofoctol response, vehicle zero; actives 0.066% (n = 330,000); caspase activation, % (test concentration not listed);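 active means over half of replicate activation scores above 10%, or exactly half above 10 with the replicate mean above 10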;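 further: wells of about 30 µL received 50 nL stock; many hits fall short of the cut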
# B2AR ag = activates human beta-2 adrenergic receptor causing internalization; response, % (concentration not given with the values); P07550; actives 0.43% (n = 340,000); Am2.2-beta2AR cells, FAP receptor internalization, flow cytometry; reference of the scale not given here;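 active means response above a set limit, near 3 SD of response in nonfluorescent compounds, cut at about 42% in these data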;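 further: stock transfer was 100 nL into about 11 µL; a reference agonist was the positive control; negative values mostly stem from fluorescent compounds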
# Target sequence (P07550 whole entry, looked up): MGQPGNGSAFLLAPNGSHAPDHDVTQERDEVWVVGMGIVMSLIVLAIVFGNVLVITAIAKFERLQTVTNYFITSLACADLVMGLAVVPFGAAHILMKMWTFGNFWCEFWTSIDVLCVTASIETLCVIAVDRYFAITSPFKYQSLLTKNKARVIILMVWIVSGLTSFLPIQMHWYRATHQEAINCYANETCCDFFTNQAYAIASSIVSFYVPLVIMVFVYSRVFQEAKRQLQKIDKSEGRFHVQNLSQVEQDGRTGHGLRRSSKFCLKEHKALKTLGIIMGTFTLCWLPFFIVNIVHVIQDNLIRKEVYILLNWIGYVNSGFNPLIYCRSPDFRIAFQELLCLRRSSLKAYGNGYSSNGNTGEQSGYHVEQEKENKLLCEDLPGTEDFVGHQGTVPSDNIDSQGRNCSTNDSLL
# Calb FLC = C. albicans growth modulation with fluconazole; growth inhibition, % (concentration not given with the values); C. albicans CaCi-2 (fluconazole-resistant clinical isolate) + fluconazole, Alamar Blue growth, 48 h; AID 1979; actives 0.57% (n = 300,000);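 active means most replicates above 75%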;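 further: all wells also contain fluconazole at 8 µg/ml as a sub-toxic cotreatment; 0% = median of DMSO wells and 100% = median of geldanamycin control wells; wells of about 8 µL received 7.5 nL stock; the first replicate is given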
# rRNA inh HTS = selective bacterial rRNA inhibition in E. coli | E. coli WT GFP vs humanized-ribosome RFP mutants, fluorescence, 24 h; hits give low values; DMSO median 0, no signal -100 | actives 1.6% (n = 350,000) | AID 720706 | GFP signal change (wild-type ribosome), % (test concentration not listed);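 active means significant combined selectivity score with lowered wild-type GFP, culture density cut under 30%, mutant RFP and density less affected; inactive means any of these conditions unmet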; further: one replicate is shown; some compounds called inactive have numbers as strong as hits
# T cruzi inh = T. cruzi replication inhibition. T. cruzi beta-gal in NIH3T3, luminescence, 90 h. inhibition, % (test concentration not listed). actives 1.4% (n = 300,000);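 active means mean inhibition across valid replicates above about 55%, limit read from the data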;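 further: signal also drops with host cell toxicity which is not excluded here; 0% = plate median of DMSO wells and 100% = zero luminescence signal; higher percent means less beta-gal luminescence so fewer parasites; stock transfer was 50 nL into about 50 µL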
# ALR H2O2 inh = inhibitors of human sulfhydryl oxidase ALR; P55789; purified ALR, DTT oxidation, H2O2 HRP-luminol luminescence; inhibition, % (test concentration not listed); actives 3.8% (n = 290,000); AID 485317;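 active means mean and each replicate at 75% or more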;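 further: stock transfer was 7.5 nL into about 7.5 µL; 0% = neutral wells and 100% = wells with inactivated enzyme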
# Target sequence (P55789 whole entry, looked up): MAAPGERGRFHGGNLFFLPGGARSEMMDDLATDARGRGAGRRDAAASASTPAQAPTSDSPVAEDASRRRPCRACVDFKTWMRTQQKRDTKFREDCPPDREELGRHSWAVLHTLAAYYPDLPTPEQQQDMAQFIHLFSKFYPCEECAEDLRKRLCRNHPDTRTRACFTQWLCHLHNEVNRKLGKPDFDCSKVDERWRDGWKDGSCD
# rRNA inh HTS OD600 = second read-out of rRNA inh HTS, no call of its own (marks repeat the call); OD600 change, %; measured here: OD600 growth;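 optical density of the mix in the first replicate; 0 = DMSO median and -100 = no signal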
# rRNA inh HTS RFP = recorded beside rRNA inh HTS, whose call it bears; RFP signal change, %; measured here: RFP humanized mutant strains;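 first replicate; 0 = DMSO median and -100 = no signal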
# * hit, by the source's call; / = not tested or not shown. Only part of the results is shown. The share of hits here may be higher or lower than overall.
SMILES,Beta cell apopt,LANA-H2B inh,A1 inh,B2AR ag,Calb FLC,rRNA inh HTS,rRNA inh HTS OD600,rRNA inh HTS RFP,T cruzi inh,ALR H2O2 inh
CC(C)(C)c1nnc(NC(=O)c2cccnc2)s1,-0.4,6.9,1.2,0.0,-2.4,11.7,10.9,1.0,-4.9,-1.8
CCOC(=O)c1ccccc1C(=O)N1CCOCCOCCOCC1,0.1,3.2,1.0,12.8,6.2,-4.9,-0.8,1.7,-15.8,/
Cc1ccc2c(c1)N(CC(=O)N1CCCC1)C(=O)c1cccnc1O2,-3.0,-4.9,1.1,-4.6,-2.0,7.2,13.0,2.0,-8.9,-13.4
Cc1cc2oc(=O)cc(CN3CCOCC3)c2c(C)c1Cl,-2.1,4.5,0.4,-18.4,-2.2,2.7,-2.7,0.5,-13.5,-4.6
COc1cccc(C2CC(c3c(Cl)cccc3Cl)n3nc(N)nc3N2)c1 (centres undefined),-3.6,-1.9,-0.2,2.0,16.1,2.9,-0.1,0.7,32.7,-1.7
Cc1ccc(-c2cn3nc(C)c(C)nc3n2)cc1,/,2.0,0.0,2.1,-1.4,/,/,/,1.4,-1.3
O=C(COc1ccc(S(=O)(=O)N2CCCCC2)cc1)N1CCCC1,/,1.0,-3.1,-6.9,10.2,10.3,6.7,-1.1,-1.2,-8.9
Cc1nc(NS(=O)(=O)c2ccccc2)sc1C(=O)N/N=C/c1ccccc1,0.3,-4.8,-0.2,-22.5,6.8,-2.4,-11.8,5.3,-0.1,/
O=C(O)c1ccc(N=C2NC(=O)C(CO)(CO)S2)cc1,-0.4,-3.8,0.8,3.2,1.6,8.2,5.0,-0.8,-0.5,-8.1
Cn1c(Cn2c(=O)sc3ccccc32)nnc1SCC(=O)Nc1ccc(F)cc1,-5.9,-2.5,0.2,-10.4,5.8,5.2,11.7,-1.0,11.9,-17.7
CCn1c(Cn2nnc(-c3ccccc3)n2)nnc1SCC(=O)Nc1cccc(C(C)=O)c1,-6.0,-1.9,-0.5,-5.0,-4.0,-14.2,-10.6,6.1,9.5,-2.0
Cc1cccc(N2CCN(C(=O)c3ccc(NC(=O)C4CCCO4)cc3)CC2C)c1 (centres undefined),-1.2,0.5,0.0,0.1,-39.6,/,/,/,-7.1,98.7*
OCCN1CCN(CCCc2c3c(cc4c2CCC4)CCC3)CC1,-7.4,-0.4,0.1,6.6,-3.1,-2.5,-4.3,-3.6,17.8,-2.0
O=C(C1COc2ccccc2O1)N1CCc2ccccc21 (centres undefined),2.5,0.1,-0.3,-3.8,-1.2,/,/,/,-4.0,10.4
Nc1ncnc2sc3c(c12)CCNC3,-1.2,-5.6,0.4,2.5,-8.9,13.0,13.3,-9.7,-15.3,/
CCOC(=O)C(NC=O)(NC(C)(C)C)C(=O)OCC,1.0,-2.4,0.3,-2.8,-9.3,/,/,/,0.3,1.0
Cc1ccccc1NS(=O)(=O)c1cccc2nonc12,/,6.4,1.3,4.7,10.5,3.4,-0.1,1.3,-6.2,96.2*
COc1ccc2c(c1)C1=NN(/C(C)=C/C(C)=O)C(c3cccc(F)c3)C1CC2 (centres undefined),-5.8,-1.9,-0.4,3.9,34.7,-23.9,-35.5,-4.7,22.4,/
Cc1cc(C)n(/C(=C/N(C)C)C(=O)c2ccccc2)n1,-2.1,-2.8,-0.4,-0.7,14.0,3.5,8.6,0.3,-2.9,-0.8
Fc1ccccc1-c1nc(NCCCN2CCOCC2)c2ccccc2n1,-0.9,/,0.0,-10.1,5.4,-1.2,15.8,-0.1,7.9,/
COc1ccc(CCNC(=O)Cn2c(=O)oc3ccccc32)cc1OC,/,-2.6,0.7,-5.8,6.1,/,/,/,-7.8,-0.1
CCCCSC1=N/C(=C/c2ccsc2)C(=O)N1c1ccccc1,4.8,0.0,0.4,6.1,-7.4,14.4,13.8,7.7,37.0,-1.6
Cc1nonc1NC(=O)CSc1ccc(-c2ccccc2)nn1,-0.2,1.1,-2.5,-4.1,-7.4,/,/,/,-4.6,27.0
O=C(COC(=O)CCc1ccccc1)Nc1cc(S(=O)(=O)N2CCOCC2)ccc1N1CCCC1,-1.3,-4.2,0.9,-1.1,2.4,12.9,6.2,-0.4,5.1,-3.9
Cc1ccc(C(=O)Nc2cccnc2)cc1S(=O)(=O)N1CCCC1,-4.2,1.1,1.0,-1.3,-3.3,-4.3,-2.9,-1.9,0.3,2.2
C=CCC1c2cccc(C(=O)O)c2C(=O)N1c1cccc(C)c1 (centres undefined),1.2,-11.0,-0.2,3.8,-2.7,4.5,5.8,0.5,-18.9,-4.6
COc1ccccc1NC(=O)CN(Cc1ccco1)C(=O)c1cccs1,-0.3,-4.6,0.7,2.5,-18.9,/,/,/,-4.2,3.3
Cc1ccc(S(=O)(=O)N2CN(CC3CCCO3)c3nc4ccccc4nc32)c(C)c1 (centres undefined),-2.8,-5.5,0.0,10.2,-19.2,5.8,-3.9,44.2,-3.7,-7.8
CCCN(C(=O)CSc1nnc2ccccn12)C1CCS(=O)(=O)C1 (centres undefined),0.0,-4.2,1.2,12.9,/,-20.6,-17.7,4.0,/,/
Cc1ccnc(NS(=O)(=O)c2ccc(NC(=O)/C=C/c3ccccc3)cc2)n1,-8.2,3.3,1.1,10.0,-0.3,1.9,-1.2,-8.4,-8.5,56.8
O=C(/C=C/c1ccco1)N1CCN(S(=O)(=O)c2ccc(F)c(F)c2F)CC1,-4.6,2.9,1.4,-3.0,7.7,16.2,12.9,-0.4,-0.5,11.4
CCC/C(=N/NC(=O)c1ccccc1Cl)c1ccccc1,0.0,3.4,-0.8,-10.1,-44.8,19.9,16.4,2.7,-1.2,-0.7
CCN(C(=O)COc1cccc2cccnc12)C1CCS(=O)(=O)C1 (centres undefined),-1.6,1.0,-0.1,-0.5,22.4,15.8,15.1,7.0,-8.9,-55.0
CC(=O)Nc1ccc(NC(=O)CCCCCn2nnc3ccccc3c2=O)cc1,5.4,6.0,-0.7,-4.2,-4.0,9.3,10.5,-1.0,-2.6,-11.2
O=C(OCc1ccc(F)cc1)c1ccc2ccccc2n1,2.2,5.1,-0.6,1.5,1.2,-31.3,-28.3,-4.7,-1.9,0.6
Cn1c(=O)c(=O)n(C)c2cc(N3CCCCC3)c(NS(=O)(=O)c3ccc(Br)cc3)cc21,-0.3,0.8,-0.3,-14.8,-0.3,-1.8,-9.3,0.6,7.8,17.8
O=C(Cn1c(=O)oc2ccccc21)Nc1ccc(Cl)cc1,1.3,5.6,-0.3,-33.2,-0.4,5.1,4.8,3.3,3.0,3.4
CCc1ccc(C(=O)CCC2CCCCC2=O)cc1 (centres undefined),6.9,9.8,-0.8,2.3,-24.4,/,/,/,4.4,-4.8
CCc1ccccc1NC(=O)CSc1nc2c(c(-c3ccco3)c1C#N)CCCC2,-8.9,1.6,0.3,3.1,1.0,/,/,/,13.6,-0.6
CCc1ccc(OCCn2cccn2)cc1,-3.4,-0.8,0.1,-7.3,-30.1,11.0,7.5,0.1,-5.8,-6.9
CCN(CC)CCn1c(=O)n(-c2ccc(Cl)cc2)c(=O)c2c3c(sc21)CN(C)CC3,-8.5,0.1,0.1,10.5,-19.7,-5.2,-10.1,9.4,/,3.3
Cc1cc(=O)oc2cc(NC(=O)COc3cccc(C(F)(F)F)c3)ccc12,-2.7,1.6,-0.3,0.5,/,-1.7,5.0,1.2,/,-3.6
CCOC(=O)Cc1csc(NC(=O)COc2cccc(C)c2)n1,-6.1,0.5,-0.8,3.5,-25.8,4.3,-5.2,-1.9,-6.4,/
CC(C)CCN1C(=O)c2ccc(C(=O)OCn3nnc4ccccc4c3=O)cc2C1=O,-8.4,-1.2,-2.9,9.7,6.6,/,/,/,11.6,-6.3
CCc1cc(=O)oc2cc(OCC(N)=O)c(Cl)cc12,0.1,2.7,-0.9,-2.7,10.4,/,/,/,-0.8,0.9
COc1ccc(NC(=O)CNc2cc(S(=O)(=O)N3CCOCC3)ccc2NCC2CCCO2)cc1 (centres undefined),-7.4,3.2,0.3,-1.4,-8.9,-4.8,-2.4,8.3,10.5,-23.1
CCn1c(=O)c(C(=O)NNS(=O)(=O)c2ccc(C)cc2)c(O)c2ccccc21,-2.1,1.7,1.3,2.2,-13.9,/,/,/,-11.7,14.9
O=C(CCCN1C(=O)/C(=C/c2ccco2)SC1=S)Nc1ccccc1C(=O)O,-3.3,2.9,-0.4,-0.3,8.6,6.4,11.4,11.3,1.1,-6.2
Cc1ccc(C(=O)NC(C)c2nc3ccccc3n2CC(=O)Nc2c(C)cc(C)cc2C)cc1 (centres undefined),-4.3,4.1,0.0,/,-1.4,/,/,/,12.3,-6.2
CC(C)(CO)NCC#Cc1ccccc1,-1.9,-4.1,-0.8,4.4,3.5,13.7,9.5,-0.8,-10.2,0.0
CCc1nnc(NC(=O)CSc2nnc(-c3c[nH]c4ccccc34)n2CCOC)s1,-7.6,-0.3,0.6,-7.7,8.0,/,/,/,-6.7,/
CC(=O)c1sc(-c2ccc(Cl)cc2)cc1N,-3.6,-3.6,-1.5,8.4,-23.9,-30.4*,-16.5*,0.9*,4.3,21.6
Cc1ccc(S(=O)(=O)Nc2cc(=O)[nH]c(SCC(=O)Nc3cccc(C(F)(F)F)c3)n2)cc1,/,/,/,-6.2,-6.9,10.9,6.4,-1.1,-8.0,/
O=C(CCc1ccccc1)NNC(=O)c1ccc(Cl)cc1,-1.0,-3.1,0.6,1.4,1.7,3.6,11.3,-0.1,-0.5,-26.7
NC(=O)c1ccc(Cn2c(C(=O)c3cc(Cl)c(N)c(Cl)c3)c3ccccc3[n+]2[O-])cc1,7.6,-4.1,-0.4,-9.6,/,-29.9,-55.7,-5.8,/,-16.6
COc1ccc2c(CC(=O)Nc3ccc(OC)c(NS(=O)(=O)c4ccc(F)cc4)c3)coc2c1,0.9,-2.8,0.8,-5.0,40.1,/,/,/,-30.2,/
CCOc1cc(CNc2ccc(N3CCOCC3)cc2)cc(Br)c1OCC,/,-1.0,-0.5,-9.8,-8.9,/,/,/,15.7,99.1*
CC(C)(C)c1ccc(-c2n[nH]c(=S)n2CCCN2CCOCC2)cc1,-1.8,-10.4,-0.5,2.2,-37.3,-11.2,-8.8,3.1,8.5,51.3
CN(C)c1ccc(/C=N/Nc2nncc3ccccc23)cc1,8.7,-1.7,-5.4,-1.6,1.7,-8.8,-3.4,-1.6,8.0,-5.3
CC(C(=O)OCC(=O)c1ccccc1)N1C(=O)C2C3CCC(C3)C2C1=O (centres undefined),-5.3,1.0,0.4,-5.5,10.1,4.4,0.0,2.2,-11.7,/

# Entries of single compounds, quoted from the list:
# `CCn1c(=O)c(C(=O)NNS(=O)(=O)c2ccc(C)cc2)c(O)c2ccccc21` as listed: Beta cell apopt: -2.1; LANA-H2B inh: 1.7; A1 inh: 1.3; B2AR ag: 2.2; Calb FLC: -13.9; rRNA inh HTS: /; rRNA inh HTS OD600: /; rRNA inh HTS RFP: /; T cruzi inh: -11.7; ALR H2O2 inh: 14.9
# `Cc1ccc(S(=O)(=O)Nc2cc(=O)[nH]c(SCC(=O)Nc3cccc(C(F)(F)F)c3)n2)cc1` as listed: Beta cell apopt: /; LANA-H2B inh: /; A1 inh: /; B2AR ag: -6.2; Calb FLC: -6.9; rRNA inh HTS: 10.9; rRNA inh HTS OD600: 6.4; rRNA inh HTS RFP: -1.1; T cruzi inh: -8.0; ALR H2O2 inh: /
